PABP FP inh: PABP poly(A) RNA binding inhibitors, primary screen, biochemical, fluorescence polarization, uHTS; inhibition, % at 35 µM; 290,000 tested, 1% active; AID 2014, 2009;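 active means 50% or more with normal probe brightness, or confirmed in later tests; about a fifth of its hits are not listed in these tables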;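 further: calls also rest on retests at 20 µM and on dose response follow-up; controls were probe without protein and protein plus probe with vehicle; some compounds called inactive have numbers as strong as hits; many hits fall short of the cut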
Target sequence (P11940 whole entry, looked up): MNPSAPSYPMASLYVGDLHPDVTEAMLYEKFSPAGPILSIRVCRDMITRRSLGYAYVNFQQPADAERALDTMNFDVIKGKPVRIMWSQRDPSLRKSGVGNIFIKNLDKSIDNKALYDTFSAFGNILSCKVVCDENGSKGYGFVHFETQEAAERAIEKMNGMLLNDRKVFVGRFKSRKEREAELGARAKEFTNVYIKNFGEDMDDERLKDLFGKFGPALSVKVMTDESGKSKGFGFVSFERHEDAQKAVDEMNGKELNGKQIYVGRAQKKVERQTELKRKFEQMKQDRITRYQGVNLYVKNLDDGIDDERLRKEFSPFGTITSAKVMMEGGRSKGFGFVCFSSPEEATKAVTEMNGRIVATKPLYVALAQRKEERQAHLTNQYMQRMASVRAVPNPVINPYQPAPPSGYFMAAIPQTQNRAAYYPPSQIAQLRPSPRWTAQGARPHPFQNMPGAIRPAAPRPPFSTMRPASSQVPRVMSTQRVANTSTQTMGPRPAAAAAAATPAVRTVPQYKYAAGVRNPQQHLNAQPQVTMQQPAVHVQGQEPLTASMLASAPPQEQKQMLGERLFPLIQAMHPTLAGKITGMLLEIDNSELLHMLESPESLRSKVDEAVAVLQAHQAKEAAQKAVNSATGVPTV
CSC inhib: cancer stem cell viability inhibitors, primary screen, luminescence. cancer stem cell-like cells viability. inhibition, % at 7.5 µM. 300,000 tested, 1.1% active;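 active means mean at 75% or more and at least half the replicates too; tested in HMLE shEcad cells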;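 further: 0% = median of negative and 100% = median of positive control wells; the first replicate is given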
MT1-MMP act inh: blockers of MT1-MMP proenzyme processing, primary screen, HT1080 RFP-PRO-GFP cells, GFP/RFP fluorescence; Matrix metalloproteinase-14 (Homo sapiens), P50281; AID 651647, 2012; GFP/RFP ratio fluorescence, overnight; percent of plate control window, DMSO zero; 360,000 tested, 0.061% active; GFP/RFP ratio change, % at 20 µM;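 active means GFP/RFP ratio change of at least 30% with cell ATP level not reduced by more than half and red fluorescence within 50% of control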; further: strong numbers were not always called active
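Read-out: GFP/RFP fluorescence ratio; Test system: RFP-PRO-GFP reporter HT1080 cells; Compound dosing: single-point 20 µM compound, 1% DMSO; Times: overnight compound exposure at 37 °C.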
HIV Env fusion: inhibitors of HIV-1 Env-driven cell-cell fusion, primary screen, HeLa-JRFL effector, CEM21 target cells, luciferase. inhibition, % at 12.3 µM. 360,000 tested, 1.1% active;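 active means mean replicate inhibition score of at least 50 and every replicate individually at or above 50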;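 further: 0% = plate neutral controls and 100% = maraviroc near 300 nM; one replicate is shown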
Yeast UUG start: modulators of yeast start codon fidelity, primary screen, whole organism, S. cerevisiae, single point, plate reader. activity score, % at 18.7 µM. S. cerevisiae UUG-firefly luciferase reporter, luminescence/redox ratio. 350,000 tested, 0.13% active. AID 602363, 2012;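 active means replicate mean at a twofold rise or more, about +100% in these data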;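 further: firefly luciferase made from a UUG start codon reports start codon fidelity; reporter light over untreated wells divided by growth signal over untreated wells; some hits fall short of that in this replicate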
Rce1 inhib: yeast Rce1p protease inhibitors, primary screen, biochemical, fluorescence, cell-free homogeneous; 290,000 tested, 0.27% active; calls only; AID 2563, 2010; CAAX prenyl protease 2 (Saccharomyces cerevisiae (strain ATCC 204508 / S288c)), Q03530; yeast membranes, quenched prenylated peptide cleavage fluorescence;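 active means fall in fluorescence gain of 50% or more versus controls, with final raw signal at or below 3038400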;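 further: plate controls were neutral control wells for no effect and wells lacking membranes for full effect; tested at 10 µM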
Target sequence (Q03530 whole entry, looked up): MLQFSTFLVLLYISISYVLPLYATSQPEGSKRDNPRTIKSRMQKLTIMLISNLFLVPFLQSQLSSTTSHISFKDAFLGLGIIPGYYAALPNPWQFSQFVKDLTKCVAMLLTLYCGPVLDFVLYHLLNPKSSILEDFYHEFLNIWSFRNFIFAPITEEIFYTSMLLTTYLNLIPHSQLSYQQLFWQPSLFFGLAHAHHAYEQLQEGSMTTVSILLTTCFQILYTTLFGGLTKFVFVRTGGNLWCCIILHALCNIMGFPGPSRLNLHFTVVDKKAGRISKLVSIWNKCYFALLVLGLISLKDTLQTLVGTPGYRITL
eIF4H FP inh: human eIF4H binding inhibitors, primary screen, translation initiation inhibitor project, biochemical, uHTS, fluorescence polarization; inhibition, % at 35 µM; 290,000 tested, 0.94% active; eIF4H fluorescence polarization binding assay; Eukaryotic translation initiation factor 4H (Homo sapiens), Q15056; AID 2012, 2009;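 active means 50% or more with normal probe brightness, or confirmed in later tests; about a fifth of its hits are not listed in these tables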;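 further: calls also rest on retests at 20 µM and on dose response follow-up; 0% = protein and probe with vehicle and 100% = probe without protein; strong numbers were not always called active; many hits fall short of the cut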
MT1-MMP act inh RFP: further read-out of MT1-MMP act inh, marked with its call; RFP signal change, %; measured here: RFP expression control read;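 0 = vehicle wells; hits needed this value within 50% of zero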
* hit, by the source's call; i = inactive; x = not tested or not shown.

SMILES | PABP FP inh | CSC inhib | MT1-MMP act inh | MT1-MMP act inh RFP | HIV Env fusion | Yeast UUG start | Rce1 inhib | eIF4H FP inh
CCc1c(O)nc(SCC(=O)N(CC)CC)[nH]c1=O | 3 | -9 | 4 | 1 | -6 | x | i | -4
CCC(O)(CC)C(=O)N(Nc1ccc(C)cc1)c1ccc(C)cc1 | -8 | -7 | -2 | 2 | 2 | -26 | i | -6
COc1ccc(Oc2ccc(C(F)(F)F)cc2NC(=O)CC(CC(=O)O)c2ccccc2)cc1 (configuration not stated) | 7 | x | 2 | 4 | 11 | 20 | i | -12
COc1ccc(CNC(=O)CCC2N=C3c4ccccc4N=C(SCC(=O)NCC4CCCO4)N3C2=O)cc1 (configuration not stated) | -2 | -8 | 1 | 2 | -9 | -6 | i | -14
CC(=O)Nc1c(Nc2ccccc2)c2ccccc2oc1=O | 0 | 3 | 3 | 2 | 12 | x | i | -7
CS(=O)(=O)N1CCC(Oc2ccccc2C(=O)N2CCN(CC3CC3)CC2)CC1 | -6 | -1 | -1 | 2 | 9 | x | i | -9
COc1ccc(C2C(C(=O)Nc3ccc(OC)c(OC)c3)c3ccccc3C(=O)N2C)cc1 (configuration not stated) | 11 | -3 | -2 | -4 | 9 | x | i | -6
O=C(Cc1ccccc1)Nc1ccc(C(=O)NCc2ccccc2)cc1 | 3 | -7 | 4 | 1 | -34 | -6 | x | -12
CCCCCC(=O)N1C[C@H](O)[C@@H](n2cc(COC(=O)c3ccccc3)nn2)C[C@@H]1c1ccccc1 | x | x | 3 | 3 | 28 | 2 | x | x
CCN(CC)S(=O)(=O)c1ccc(Cl)c(NC(=O)COc2ccc(OC)cc2[N+](=O)[O-])c1 | 0 | x | 1 | 2 | -9 | x | i | 48
Cc1ccc(C2(C)NC(=O)N(CC(=O)N(c3ccccc3)C3CCS(=O)(=O)C3)C2=O)cc1 (configuration not stated) | x | -5 | -2 | -2 | -3 | x | x | x
CCOc1ccc(S(=O)(=O)N2CCN(c3ccccc3F)CC2)c2cccnc12 | 6 | 17 | 0 | -6 | 11 | -4 | i | 8
CC1CCCCC1NC(=O)c1cc(Cl)nc2ccccc12 (configuration not stated) | x | x | 6 | 8 | -5 | -9 | x | x
Cc1ccc(Nc2nc(N)nc(CN3CCN(Cc4ccc5c(c4)OCO5)CC3)n2)c(C)c1 | -13 | -8 | 1 | 0 | 1 | -26 | i | -7
CCC1CCCCN1C(=S)Nc1ccc(C(C)=O)cc1 (configuration not stated) | -2 | -5 | -1 | -4 | 7 | x | i | -2
Cc1cc(NC(=O)CCN2CC(C)OC(C)C2)ccc1Br (configuration not stated) | -6 | 3 | 0 | 3 | 24 | -4 | i | -4
O=C(COC(=O)CCC(=O)c1cccs1)NCc1ccccc1 | 3 | -10 | 1 | 1 | 6 | x | i | 4
Cc1ccc(Nc2ccc(S(=O)(=O)N3CCOCC3)cc2[N+](=O)[O-])cc1C | -8 | 13 | 1 | -7 | 10 | -5 | i | -5
CCOCCCNC(=O)C(c1ccccc1)N(Cc1cccs1)C(=O)CNC(=O)c1ccccc1 (configuration not stated) | -3 | -18 | -2 | -2 | -9 | 11 | i | 5
COc1ccc2c(c1)C(c1ccccc1)=NNC(c1ccco1)=N2 | -6 | -18 | -1 | -1 | x | x | i | -9
O=C(CSc1nnc2sc3ccccc3n12)N1CCN(c2ccccc2)CC1 | 10 | -5 | 2 | 4 | x | -23 | i | -11
O=C(c1cccc(NS(=O)(=O)c2cccc(F)c2)c1)N1CCN(c2ccccc2)CC1 | 4 | -7 | 4 | -2 | 4 | -1 | i | 4
NC(c1csc(NC(=O)Nc2ccc(OC(F)(F)F)cc2)n1)C1CCCCC1 (configuration not stated) | x | x | -4 | -8 | -7 | -9 | x | x
Cc1ccc(S(=O)(=O)N2CCCCC2)cc1NC(=O)c1ccccn1 | -10 | -2 | -2 | -5 | 15 | x | i | 4

Reprinted at random: five records from the list.
SMILES | PABP FP inh | CSC inhib | MT1-MMP act inh | MT1-MMP act inh RFP | HIV Env fusion | Yeast UUG start | Rce1 inhib | eIF4H FP inh
Cc1ccc(Nc2ccc(S(=O)(=O)N3CCOCC3)cc2[N+](=O)[O-])cc1C | -8 | 13 | 1 | -7 | 10 | -5 | i | -5
O=C(CSc1nnc2sc3ccccc3n12)N1CCN(c2ccccc2)CC1 | 10 | -5 | 2 | 4 | x | -23 | i | -11
Cc1ccc(Nc2nc(N)nc(CN3CCN(Cc4ccc5c(c4)OCO5)CC3)n2)c(C)c1 | -13 | -8 | 1 | 0 | 1 | -26 | i | -7
CCOCCCNC(=O)C(c1ccccc1)N(Cc1cccs1)C(=O)CNC(=O)c1ccccc1 (configuration not stated) | -3 | -18 | -2 | -2 | -9 | 11 | i | 5
COc1ccc2c(c1)C(c1ccccc1)=NNC(c1ccco1)=N2 | -6 | -18 | -1 | -1 | x | x | i | -9

(continued)
SMILES | PABP FP inh | CSC inhib | MT1-MMP act inh | MT1-MMP act inh RFP | HIV Env fusion | Yeast UUG start | Rce1 inhib | eIF4H FP inh
Cc1cccc(OCCCCCN2CCOCC2)c1C | 1 | -2 | 3 | 1 | 4 | -7 | i | 13
CCN(CC)c1nc(C)c2c(c1C#N)CC(C)(C)OC2 | 2 | -14 | 4 | 0 | x | -16 | i | -10
C/C=C\C(=O)Nc1cccc(C2=NOC3(C2)C[C@@H](C(N)=O)N(C(=O)CCCCC)C3)c1 (some centres not stated) | 10 | -18 | 0 | 2 | -48 | 8 | i | 0
Cc1[nH]c2ccc(C(=O)NCCCN3CCN(C)CC3)cc2c1C | -6 | 11 | 0 | 2 | 3 | 20 | i | -15
COc1ccc(NC(=O)CSc2nnc(Cc3cccs3)n2C)cc1 | x | x | 5 | 1 | 13 | x | i | x
Cc1ccc(CN(C)CCc2ccccn2)cc1 | 12 | 8 | 4 | 5 | -25 | -15 | i | 18
COc1ccccc1OCc1ccc(C(=O)N/N=C/c2ccco2)cc1 | -14 | 6 | -2 | 1 | -18 | 2 | i | 0
O=C(NC(Cc1c[nH]c2ccccc12)C(=O)O)c1cccs1 (configuration not stated) | 13 | 11 | 1 | 3 | -3 | x | i | -3
O=C(O)CSC(NC(=O)c1cccnc1)(C(F)(F)F)C(F)(F)F | 6 | -4 | 0 | 1 | -29 | x | i | -8
COc1ccc(C(=O)NC(=S)Nc2cccc3cc(O)ccc23)cc1OC | 15 | -15 | -2 | 1 | -3 | -27 | i | 8
O=C(Cc1c(C(=O)O)[nH]c2ccccc12)NCCN1CCN(c2ccccc2F)CC1 | -7 | -11 | 3 | 7 | -66 | -10 | i | -14
CCCNC(=O)OC[C@H]1O[C@H](CCO/N=C/[C@@H](OC)[C@H](C)/C=C/CC(=O)OC)C=C[C@@H]1Oc1ccc(OC)cc1 | 1 | 7 | x | x | x | x | i | -5
COCc1cccc(-c2csc(C(C)(NC(C)=O)c3ccccc3)n2)c1 (configuration not stated) | x | x | 2 | -3 | -9 | 11 | x | x
COc1ccc(-c2cccc(C(=O)N3CCOCC3)c2)cc1 | -8 | -14 | -5 | -2 | -10 | -4 | i | -4
Nc1nnc(CC(=O)N/N=C/c2ccccc2OCc2ccc(F)cc2)s1 | -15 | 7 | 5 | -3 | 13 | -18 | i | -14
CCOc1cc(CNCc2ccncc2)cc(Br)c1OCc1ccccc1F | 3 | -26 | -13 | -27 | x | -4 | i | 7
Cc1ccc(OCC(=O)NC(=S)Nc2cccc(NC(=O)c3ccc(Cl)cc3Cl)c2)cc1 | -12 | -2 | 3 | 0 | 11 | x | i | 5
COc1cccc(CNC(C)C(=O)Nc2ccc(S(=O)(=O)N3CCCC3)cc2)c1 (configuration not stated) | x | 11 | -5 | 1 | -14 | -14 | x | x
NNC(=O)CCS(=O)(=O)c1ccc2ccccc2c1 | 8 | 17 | 3 | 4 | x | -8 | i | 4
COc1ccc(-c2nc(C#N)c(N3CCN(c4ccccc4)CC3)o2)cc1 | -14 | -2 | -2 | -2 | -2 | -11 | i | -1
Cc1cc(C)c(S(=O)(=O)N2CCN(C(=O)CCn3nc(C)c(C)c3C)CC2)c(C)c1 | 2 | -17 | 1 | -2 | 10 | 3 | x | -4
Cc1cc(C)n(C(=O)CNc2cccc(Cl)c2C)n1 | -2 | 9 | -1 | 1 | x | -20 | i | 4
Cc1nn(Cc2ccccc2)c2ncccc12 | 10 | -15 | 4 | -3 | 14 | -17 | i | 0
O=C(NCC1CCCO1)C1CC(=O)N(c2ccc(Cl)cc2)C1 (configuration not stated) | 2 | 7 | x | x | -2 | -13 | i | 12
Cc1cc(NC(=O)C2CC(=O)OC2c2ccccc2)no1 (configuration not stated) | -7 | -4 | -4 | 2 | 21 | -7 | i | -9
COc1ccc(C2NC(=O)NC(C)=C2C(=O)OCc2ccccc2)cc1 (configuration not stated) | -18 | -13 | 4 | 0 | 19 | -16 | i | -12
CCCN(CC(=O)Nc1ccc(F)c(F)c1F)C(=O)C1=COCCO1 | x | -6 | -2 | -1 | -5 | -22 | i | x
COCCn1c(-c2ccccc2)nc2c(c(=O)c3ccccc3n2C)c1=O | -9 | -8 | x | x | x | x | i | -4
COc1ccc(OC)c(/C=N/NC(=O)CCN2CCN(C(c3ccccc3)c3ccccc3)CC2)c1 | 17 | 4 | -8 | -6 | -14 | x | i | 5
O=C(c1cc(-c2ccc(O)cc2)on1)N1CCN(c2ccccc2)CC1 | -2 | 104* | 4 | -1 | 8 | -8 | i | 11
COc1ccccc1NC(=O)Nc1nn(C)c2cccc(N(C)C)c12 | 1 | 11 | 4 | -1 | 12 | x | i | -8
N#Cc1c2c(c(NCc3cccnc3)n3c1nc1ccccc13)CCC2 | 34 | -8 | 0 | 6 | -86 | -15 | i | 33
O=C1CCCC/C1=C/Nc1cccc(C(F)(F)F)c1 | -4 | -6 | -1 | 3 | -5 | x | i | 6
CCCCOc1cccc(C(=O)Nc2ccc(N3CCN(CC)CC3)cc2)c1 | -5 | -2 | 3 | 0 | x | -4 | i | -22
COc1cc2nc(CN3CCN(S(=O)(=O)c4c(F)cccc4F)CC3)[nH]c(=O)c2cc1OC | x | -3 | -3 | -4 | 2 | -23 | x | x
COc1ccc(CCNC(=O)CCc2ccc(S(=O)(=O)NC(C)C)cc2)cc1 | 7 | 4 | 1 | 4 | x | -5 | i | 7
COc1ccc(C)c(Cn2c(-c3nonc3N)nc3ccccc32)c1 | -6 | 64 | -15 | -15 | 6 | -26 | i | 1
Cc1ccc(S(=O)(=O)N2CCN(C(=S)NCc3ccc4c(c3)OCO4)CC2)cc1 | -9 | -5 | 2 | -8 | 0 | -13 | i | -8
O=C(Cn1cc(S(=O)(=O)N2CCCC2)c(S(=O)(=O)N2CCCC2)c1)NCc1ccco1 | 14 | -7 | -3 | -1 | 2 | -17 | i | 0
CC1=CC(=C2C=CC(=O)C=C2)C=C(C)N1C | 6 | x | x | x | -16 | x | i | -5
O=C(O/N=C1/CCSc2ccccc21)c1ccc(F)cc1 | -10 | -3 | 3 | -2 | x | -38 | i | 3
COc1c(F)c(F)c(C(=O)O)c(Nc2ccc(C)cc2)c1F | 0 | 3 | 1 | 4 | 11 | x | i | -4
CC1=Nc2ccccc2N=C(NC(=O)CSc2nnnn2-c2ccccc2)C1c1ccccc1 (configuration not stated) | 7 | 7 | 1 | -8 | x | 9 | i | -3
O=C(CN(C(=O)CNC(=O)c1ccco1)c1ccc(F)cc1)NC1CCCCC1 | 2 | -3 | -1 | -1 | 8 | -1 | x | -3
Cc1nc2ccc(NC(=O)c3nn(CC(C)C)c(=O)c4ccccc34)cc2s1 | -1 | 1 | -9 | -4 | x | -3 | i | -12
COc1ccc(N(C)C(=O)c2ccc(NC(=O)CCS(=O)(=O)c3cccs3)cc2)cc1 | 2 | 7 | 0 | 1 | 3 | -1 | i | -4

An excerpt (hit frequency here may not be typical).
